VDR inh – Inhibitors of the vitamin D receptor (VDR): qHTS. VDR-SRC2-3 peptide fluorescence polarization, 2 h. Vitamin D3 receptor (Homo sapiens), P11473. 400,000 tested, 0.93% active. Potency, µM, without a hit: max response, negative = inhibition, most hits filed as inhibitors; active = well fitted inhibition curve with a large enough effect; inconclusive = small, poorly fitted or top-dose-only effect, or another doubt; inactive = no such curve, though single readings can be large or run the other way; also: series mostly up to about 120 µM
Target sequence (P11473 whole entry, looked up): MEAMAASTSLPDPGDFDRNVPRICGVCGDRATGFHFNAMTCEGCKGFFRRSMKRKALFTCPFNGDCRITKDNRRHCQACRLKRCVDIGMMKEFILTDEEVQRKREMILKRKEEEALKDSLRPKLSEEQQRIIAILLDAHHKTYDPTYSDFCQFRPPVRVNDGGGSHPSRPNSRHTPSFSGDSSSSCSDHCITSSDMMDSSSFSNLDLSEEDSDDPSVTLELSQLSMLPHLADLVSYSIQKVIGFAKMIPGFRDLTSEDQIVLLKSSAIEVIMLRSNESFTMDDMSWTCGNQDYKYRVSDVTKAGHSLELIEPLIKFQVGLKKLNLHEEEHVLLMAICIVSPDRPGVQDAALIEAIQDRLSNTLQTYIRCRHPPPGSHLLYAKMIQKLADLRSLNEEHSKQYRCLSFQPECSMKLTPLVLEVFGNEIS
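Two reagent solutions held at 4 deg C in the dark were dispensed, compounds pinned at 23 nl, and the mixture incubated 2 h at room temperature. Read-out: fluorescence polarization of VDR–SRC2-3 peptide binding.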
The depositor's hits bear a star; ? = inconclusive; [ ] = dose if it differs, or a comment. % is scaled to controls: 0 for no effect and ±100 for the full control effect; potency is read from the fitted curve at half-maximal effect. A portion of the library; rates above refer to the full screens.

SMILES | VDR inh
COc1cccc(-c2nn(-c3ccccc3)cc2C(=O)OCC(=O)Nc2ncc(Cl)cc2Cl)c1 | 1.0%
CC(C)(C)OC(=O)C[C@@H]1C/C=C\C[C@@H](CC(=O)N(CCO)Cc2ccccc2)C(=O)N[C@@H](c2ccccc2)COC1=O | 1.1%
COc1ccc(S(=O)(=O)N2CCCCCC2)cc1C(=O)OCc1cccc(OC)c1OC | 2.8%
O=C(COc1ccc(F)cc1Cl)NC1CCCCCC1 | 2.7%
O=P(NC1CCCCC1)(c1ccccc1)c1ccccc1 | -3.9%
CCc1ccc(-c2nn(CC(=O)NC3CCCCC3)c3c2cnc2ccc(F)cc23)cc1 | 9.5%
CC(=O)C1=C(O)C(=O)N(CCc2c[nH]c3ccccc23)C1c1ccco1 (centres undefined) | -9.7%
COc1ccc(NC(=O)CCn2cccc2)c(OC)c1 | -5.4%
CCOC(=O)c1[nH]n(-c2ccc(Cl)cc2)c(=O)c1C | -20.8%
COc1ccc(NC(=S)NCCc2ccccc2)c(C)c1 | 0.6%
COc1cc(/C=N/NC(=O)CCn2c3ccccc3c3ccccc32)cc(OC)c1OC | 19.5%
CCOCCCNC(=S)Nc1ccc2nc3n(c(=O)c2c1)CCCCC3 | 7.4%
c1cnc2ccc(C(c3nnnn3C3CCCC3)N3CCSCC3)cc2c1 (centres undefined) | 14.3%
COc1ccccc1-c1nc(C#N)c(N2CCN(c3ccccc3)CC2)o1 | -10.9%
C=CCn1c(SCC(=O)N2CCN(c3ccc(F)cc3)CC2)nnc1-c1ccco1 | -1.8%
COc1ccc(S(=O)(=O)c2cc3cc(C(C)(C)C)cc(O)c3oc2=O)cc1 | -16.5%
CCNS(=O)(=O)c1ccc(NC(=O)Nc2ccccc2OC)cc1 | 4.5%
COc1ccccc1N1CCN(CCCCOc2ccc(C)cc2C)CC1 | -7.6%
CSCC[C@H](NC(=O)c1cccc(S(=O)(=O)N2CCCCC2)c1)c1nc2ccccc2[nH]1 | 11.8%
COc1ccc(-c2c(C)c3ccc(O)cc3oc2=O)cc1 | -17.9%
CCOC(=O)[C@H]1[C@H]2COc3ccc(C)cc3[C@@H]2N2C(=O)c3ccc(Cl)cc3NC(=O)[C@@]12C | -20.3%
NS(=O)(=O)c1cccc(NC(=O)COC(=O)C2CCN(S(=O)(=O)c3cccs3)CC2)c1 | -14.6%
CC(=O)Nc1ccc2nc(SCC(=O)NCCOc3ccccc3)sc2c1 | ?
Cn1nc(C(=O)NNC(=O)Cc2ccc(S(=O)(=O)N3CCOCC3)s2)c2ccccc2c1=O | -6.0%
Cc1ccc(C(=O)N2CCN3C(=O)c4ccccc4C23c2ccccc2)cc1 (centres undefined) | 8.1%

Part of the list above, with the structure last:
| VDR inh | molecule |
| --- | --- |
| -3.9% | O=P(NC1CCCCC1)(c1ccccc1)c1ccccc1 |
| -16.5% | COc1ccc(S(=O)(=O)c2cc3cc(C(C)(C)C)cc(O)c3oc2=O)cc1 |
| 9.5% | CCc1ccc(-c2nn(CC(=O)NC3CCCCC3)c3c2cnc2ccc(F)cc23)cc1 |

The results go on.
SMILES | VDR inh
Cc1cc(/C=N/NS(=O)(=O)c2ccc(F)c(Cl)c2)no1 | ?
CCc1cc2c(NCCC(=O)O)nc(C)nc2s1 | -0.9%
CCOC(=O)C1CCCN(C(=O)Cn2cnc3c2c(=O)n(C)c(=O)n3C)C1 (centres undefined) | 8.1%
CC1CCCCN1C(=O)CCn1c(=O)oc2ccccc21 (centres undefined) | -3.9%
COc1ccc(-c2cc(-c3ccccc3)c(C#N)c(S(C)=O)n2)cc1 (centres undefined) | 1.7%
CCc1ccc(CN2CCCC(C(=O)Nc3ccc(-c4cscn4)cc3)C2)o1 (centres undefined) | -13.0%
COc1cccc(NC(=O)Cn2c(=O)n(Cc3ccc(C(=O)NCc4ccc5c(c4)OCO5)cc3)c(=O)c3ccccc32)c1 | -16.9%
COc1ccc2cc3cc(C(=O)NC4CC4)sc3nc2c1 | 8.1%
Cc1ccc(N/N=C/c2c(O)cc(C)oc2=O)cc1 | 3.7%
O=C(O)C1(NS(=O)(=O)c2ccc(F)c(Cl)c2)CCCCC1 | 5.5%
CCc1ccc(NC(=O)C(=O)NCCN2CCN(Cc3ccc([N+](=O)[O-])cc3)CC2)cc1 | 9.2%
O=C(/C=C/c1ccccc1Cl)NCc1cccs1 | 13.5%
CC(C(=O)NCc1ccco1)n1cc([N+](=O)[O-])cn1 (centres undefined) | -10.1%
Cc1cccc(CNC(=O)Cc2ccc(NC(=O)N3CCCCc4ccccc43)cc2)c1 | 10.3%
C=CCc1cccc(/C=N/NC(=O)COc2ccc(-n3cnnn3)cc2)c1O | -14.1%
CN(C)C(C)(C)C#CCCCCC#CC(C)(C)N(C)C | -9.3%
COc1ccc2cc(S(=O)(=O)N3CCCC(C)C3)ccc2c1 (centres undefined) | 89.1µM*
CN1CCN(C(=O)c2ccccc2NC(=O)Cc2ccccc2)CC1 | 1.1%
COc1cccc(N2CCN(C(=O)c3ccc(CS(=O)c4ccccc4Cl)o3)CC2)c1 (centres undefined) | ?
Cn1c(=O)oc2cc(S(=O)(=O)N3CCCCC3)ccc21 | 3.2%
O=C(Cc1cccs1)N(Cc1cccs1)C1(C(=O)NC2CCCCC2)CCCCC1 | -0.2%
CCc1nn2c(=O)cc(COC(=O)COc3ccc(OC)cc3)nc2s1 | 13.0%
CC(C)(C)c1ccc(S(=O)(=O)N2CCN(c3nc(-c4ccccc4)nc4ccccc34)CC2)cc1 | 2.3%
Cc1cccc(NC(=S)c2nc3ccccc3s2)c1 | -0.8%
Cc1[nH]c2ccccc2c1/C=N/NC(=O)c1cccc(F)c1 | -11.9%
Remaining list, next part.
SMILES | VDR inh
CN1C(=O)NC(c2ccccc2)C2=C1CN(Cc1ccco1)C2=O (centres undefined) | -8.6%
CCOC(=O)C1C(=O)CC(C)(O)C(C(=O)OCC)C1c1ccc(NC(C)=O)cc1 (centres undefined) | -8.1%
CC(Sc1nnnn1C)C(=O)Nc1nc(-c2ccc(F)c(F)c2)cs1 (centres undefined) | -9.9%
CC(C)CN1C(=O)c2ccc(NC(=O)Cc3ccccc3)cc2C1=O | -8.2%
COc1ccccc1NC(=O)CSc1nc(O)c(C/C=C/c2ccccc2)c(=O)[nH]1 | -18.9%
COC(=O)c1ccc(CSc2ncnc3c2oc2ccccc23)o1 | 1.1%
COc1ccc2c(c1)c(CC(=O)Nc1cccc(F)c1C)c(C)n2C(=O)c1ccc(Cl)cc1 | -7.6%
CCc1ccc(C(=O)c2cn(CC(=O)Nc3cccc(OC)c3)c3cc4c(cc3c2=O)OCO4)cc1 | 14.4%
COc1cc(Cl)c(NC(=O)c2cc(S(=O)(=O)N3CCCCC3)c[nH]2)c(OC)c1 | 4.0%
COc1ccc(-c2nc(C3CCCCC3)c3cc(OC)ccc3n2)cc1 | -1.7%
COC(=O)COc1c(/C=C\c2nc(O)c([N+](=O)[O-])c(=O)[nH]2)cccc1OC | -15.9%
O=C(NC(=S)N1CCN(c2ccccc2)CC1)c1ccco1 | -4.1%
COC(=O)c1onc(-c2c(Cl)cccc2Cl)c1C(=O)OC | 9.2%
COC(=O)c1ccccc1NC(=O)c1oc2ccc3c(c2c1C)C(=O)CC(C)(C)O3 | -8.1%
O=C(Nc1ccc(Nc2ccccc2)cc1)c1ccccc1F | 15.0%
CCCCCCSc1ccc([C@@H]2[C@H]3C(=O)N(C)C(=O)[C@H]3[C@]3(C(=O)OC)CCCCN23)cc1 | -18.6%
CCn1c(=O)n(-c2ccc(F)cc2)c(=O)c2sc3ccccc3c21 | 5.7%
O=S1(=O)CCN(Cc2cccc(C(F)(F)F)c2)CC1 | 13.2%
C=CCC[C@@H](Cc1ccc(F)cc1)C(=O)OCCNC(=O)[C@H](CC=C)CC(=O)NCCO | -6.8%
O=C(O)COc1ccccc1C1Nc2ccccc2-c2nnc(SCc3ccc(Cl)cc3)nc2O1 (centres undefined) | -25.3%
CC(=O)/C=C\C1[C@]2(C)CCCC(C)(C)C2CC[C@@]1(C)O (some centres undefined) | 1.4%
COc1cccc(CNC(=O)c2ccc(C3SCCS3)cc2)c1 | -7.4%
COc1cc(CC(=O)OCC(=O)Nc2ccccc2C#N)cc(OC)c1OC | -13.1%
CC(=O)N1CCC(N(Cc2ccco2)C(=O)Nc2ccc(C)c(Cl)c2)CC1 | 5.0%
CCCN=C(C)C1=C(O)c2ccccc2C1=O | 13.1%
Going on with the list.
SMILES | VDR inh
COC(=O)C1CCN(C(=O)c2ccc(OC)c(S(=O)(=O)N3CCCc4ccccc43)c2)CC1 | 0.6%
Cc1c(N=Cc2ccco2)c(=O)n(-c2ccccc2)n1C | -0.7%
Cc1ccccc1OCCN1CCC(Cc2ccccc2)CC1 | -10.4%
Cc1ccsc1C(=O)OCC(=O)N1CC(C)CC(C)C1 (centres undefined) | -2.3%
O=C(C1=C[C@H](C2CC2)C[C@H](OCCCCO)O1)N1CCOCC1 | 9.3%
Cc1cc(C(=O)COC(=O)Cc2n[nH]c(=O)c3ccccc23)c(C)n1-c1ccc2c(c1)OCO2 | -16.9%
COc1cccc(NS(=O)(=O)c2nc3nc(C)cc(C)n3n2)c1 | 0.0%
CC(NC(=O)c1sc2ncccc2c1-n1cccc1)c1ccccc1 (centres undefined) | 3.2%
Cc1cc[n+](-c2ccccc2)c2ccccc12 | 84.0%[activator]
C[C@H](CO)N1C[C@H](C)[C@@H](CN(C)S(=O)(=O)c2cccs2)Oc2ccc(NC(=O)c3ccncc3)cc2C1=O | -0.9%
CC1CCN(C(=O)Cn2ncc3c4ccccc4n(C)c3c2=O)CC1 | 1.6%
Cc1cc(C)c[n+](CC(=O)c2ccc(C)c([N+](=O)[O-])c2)c1 | -6.3%
CCCCOC(=O)c1cccc(NC(=O)/C=C/c2ccccc2Cl)c1 | 5.2%
COc1ccc(C(NC(=O)c2ccc(F)cc2)c2ccccc2)cc1 (centres undefined) | -27.1%
COc1ccc(CNC(=O)COc2cccnc2[N+](=O)[O-])cc1 | 3.1%
Cc1ccc(C)c(N2CCN(C(=O)CN3CCSc4ccccc43)CC2)c1 | 0.6%
O=S(=O)(NCCCc1ccccc1)c1ccccc1 | -15.5%
COc1cc([N+](=O)[O-])ccc1NC(=O)/C=C\C(=O)O | -25.5%
Cc1ccc(C(=O)Nc2ccc(Br)cc2)cc1S(=O)(=O)N1CCOCC1 | -2.3%
O=[N+]([O-])c1cccc(/C=N/Nc2ccccn2)c1 | -6.5%
COC(=O)CCC(=O)c1oc2ccc(Br)cc2c1N | -21.1%
O=S(=O)(c1cccc(-c2nnc(-c3ccc(Br)cc3)o2)c1)N1CCCCCC1 | 9.5%
COc1cc(NC(=O)CNc2cccc(S(=O)(=O)N3CCCC3)c2)cc(OC)c1 | 1.4%
Cn1c(=O)c2c(nc(SCc3ccccc3F)n2C)n(C)c1=O | 0.3%
O=C(COC(=O)c1ccccc1)NCCC1=CCCCC1 | -16.1%

Another view of some results above.
COc1cc([N+](=O)[O-])ccc1NC(=O)/C=C\C(=O)O
  VDR inh = -25.5%

Cc1ccc(C(=O)Nc2ccc(Br)cc2)cc1S(=O)(=O)N1CCOCC1
  VDR inh = -2.3%

O=[N+]([O-])c1cccc(/C=N/Nc2ccccn2)c1
  VDR inh = -6.5%

COC(=O)CCC(=O)c1oc2ccc(Br)cc2c1N
  VDR inh = -21.1%

The list continues:
SMILES | VDR inh
O=C(NCc1cccnc1)Nc1cccc(NC(=O)NCc2cccnc2)c1F | -14.8%
O=C(Cc1ccccc1)Nc1c2c(nn1-c1cccc(Cl)c1)CS(=O)(=O)C2 | -10.1%
CC(=O)Nc1ccc(S(=O)(=O)NC(C)C(=O)NC(C)c2ccccc2)cc1 (centres undefined) | -28.7%
CN(C)c1nc(Nc2ccccc2)nc(Oc2ccc(=O)[nH]n2)n1 | -1.1%
CCOc1ccc(/C=C/C(=O)N2CCOCC2)cc1OC | 1.5%
Cc1cc(C)c2c(N)c(C(=O)NN)sc2n1 | -3.9%
NC(=O)CN1C(=O)/C(=c2\sc3nc(=O)c(Cc4ccccc4)nn3c2=O)c2ccccc21 | ?
O=C(NCC(c1ccco1)N1CCc2ccccc2C1)C(=O)Nc1ccc(F)cc1F (centres undefined) | -6.5%
Cc1cc(C)n(CC(=O)n2nc(C)cc2C)n1 | 9.9%
O=c1c(CCc2ccccc2)nc2cnc(N3CCNCC3)nc2n1Cc1ccc(F)cc1 | -8.6%
O=C(O)/C=C/C(=O)Nc1cccnc1 | -0.5%
CC(C)NC(=O)CC1(C(=O)NCc2ccc(Cl)cc2)CCCC1 | 0.1%
CN(C)C(=O)Cn1c(SCC(=O)N2CCCc3ccccc32)nc2ccccc21 | 2.8%
O=c1c(N2CCN(c3cccc(Cl)c3)CC2)csc2ccc(Cl)cc12 | 1.8%
COC(=O)C1=C(C)NC(=O)CC1c1ccccc1 (centres undefined) | -14.1%
COc1cc2ccccc2cc1C(=O)Nc1ccc(N2CCN(C)CC2)cc1 | -3.0%
O=C1CSC(c2ccccc2)N1c1cccnc1 (centres undefined) | -26.7%
O=C(O)C1CC=CCC1C(=O)Nc1ccccc1C(=O)N1CCN(c2ccc(F)cc2)CC1 (centres undefined) | -6.3%
O=C(NCCNC(=O)C1CC2CCC1C2)C1CC2CCC1C2 (centres undefined) | -3.0%
Cc1ccc(S(=O)(=O)N(CC(=O)O)c2ccc(Cl)c(C(F)(F)F)c2)cc1 | -10.7%
CS(=O)(=O)c1ccc2nc(NC(=O)C3COc4ccccc4O3)sc2c1 (centres undefined) | 7.3%
CC(C)=CCOc1cc2oc(=O)ccc2cc1O | 11.2%
O=C1CN(C(=O)COC(=O)Cc2ccsc2)c2ccccc2N1 | -16.9%
Cc1ccsc1-c1nc(CSCC(=O)NCc2ccc3c(c2)OCO3)c(C)o1 | -28.2%
CCN1C(=O)[C@@H]2[C@@H](c3ccc(-c4ccc(Cl)c(Cl)c4)cc3)N3CCC[C@@]3(C(=O)OC)[C@@H]2C1=O | -11.7%
